# Assay outcomes from PubChem.
# Cruzain Triton = inhibitors of Trypanosoma cruzi cruzain with detergent; purified cruzain, Z-FR-AMC fluorescence, 0.01% Triton; Potency, µM, for the others: max response, negative = inhibition, actives largely listed as inhibitors; 200,000 compounds, 0.43% hits;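 further: plate controls were neutral wells for no effect and buffer without enzyme for full effect; nearly all actives have a fitted effect of over 40% in size; top concentration of the series not given in the record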
# Target sequence (P25779 123-467 limits assumed): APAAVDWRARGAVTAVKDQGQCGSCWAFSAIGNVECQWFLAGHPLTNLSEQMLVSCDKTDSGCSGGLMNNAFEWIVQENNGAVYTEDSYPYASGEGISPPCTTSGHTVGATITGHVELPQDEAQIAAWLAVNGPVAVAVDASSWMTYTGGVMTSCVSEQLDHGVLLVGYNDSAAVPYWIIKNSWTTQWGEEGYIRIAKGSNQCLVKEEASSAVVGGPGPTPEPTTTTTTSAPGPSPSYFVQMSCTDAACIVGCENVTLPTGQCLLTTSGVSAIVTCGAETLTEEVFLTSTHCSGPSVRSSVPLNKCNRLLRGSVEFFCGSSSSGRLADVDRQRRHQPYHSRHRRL
#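 Z-FR-AMC hydrolysis (2 uM substrate) by cruzain (1.5 nM) monitored kinetically at ex 360/em 450 nm after 15 min room-temperature compound exposure; 0.01% Triton X-100, pH 5.5, 5 mM DTT.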
# SARS PLpro yeast = inhibitors of SARS-CoV papain-like protease in yeast; S. cerevisiae expressing SARS-CoV PLpro, growth rescue; control for the full effect not named in the record; Potency, µM (series often up to 32.9 µM), without a hit: top-dose activity, positive = growth rescue; 330,000 compounds, 0.19% hits; AID 485353; active means well fitted rising curve with a large enough effect; inconclusive means small, poorly fitted or top-dose-only effect; inactive means no such curve, though single readings can be large or run the other way; further: 0% is about no effect; nearly all actives have a fitted effect of over 55% in size; growth read by luminescence after 48 h
# Cruzain inh noDet = blocks cruzain activity in detergent-free assay | P25779 | purified cruzain, Z-FR-AMC fluorescence, no detergent | Potency, µM, inactives show max response, negative = inhibition, most hits filed as inhibitors | 200,000 compounds, 2.3% hits;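 further: plate controls were enzyme without inhibitor for no effect and buffer without enzyme for full effect; nearly all actives have a fitted effect of over 40% in size; top concentration of the series not given in the record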
#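 Detergent-free condition (0.00005% Triton X-100) in acetate buffer pH 5.5 with DTT. 1.5 nM enzyme and compound were pre-mixed 15 min, then 2 uM Z-FR-AMC substrate added; reaction progress from fluorescence change between first and third reads (60 s).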
# 2A StopGo = lowers the luciferase signal of an FMDV 2A StopGo reporter; human cells with a luciferase reporter of 2A StopGo recoding; control for the full effect not named in the record; Potency, µM (top dose mostly 57.9 µM), for inactives: at the highest dose signal change, negative = less light; AID 1159524; 410,000 compounds, 1.2% hits; active = well fitted falling curve with a large enough effect; inconclusive = small, poorly fitted or top-dose-only effect; inactive = no such curve, though single readings can be large or run the other way; tested in HEK293T cells; further: on the % scale 0 is the no-effect control and ±100 the full control effect; nearly all actives have a fitted effect of over 45% in size; luciferase light after 4 h
# NS1 function inh = inhibitors of influenza NS1 protein function | S. cerevisiae slowed by influenza A NS1, growth recovery by OD600 | Potency, µM (top dose mostly 46.1 µM), inactives show top-dose activity, positive = more growth | 270,000 compounds, 0.4% hits; active means well fitted rising curve with a large enough effect; inconclusive means small, poorly fitted or top-dose-only effect; inactive means no such curve, though single readings can be large or run the other way; further: nearly all actives have a fitted effect of over 50% in size
#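 Compounds were scored for reversing the slow growth caused by influenza A NS1 in S. cerevisiae, measured by optical density at 600 nm. Assay medium contained 2% galactose at pH 6.0; NS1-free yeast of the same strain were the positive control.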
# Lassa entry inh = blocks Lassa virus binding to or entry into cells; 300,000 compounds, 1.2% hits; AID 540256; Lassa virus pseudotype entry inhibition, cell reporter; control for the full effect not named in the record; Potency, µM (top dose mostly 37.9 µM), without a hit: top-dose activity change, negative = inhibition, hits mostly inhibitors; active means well fitted inhibition curve with a large enough effect; inconclusive means small, poorly fitted or top-dose-only effect, or effect the other way; inactive means flat fitted curve, though single readings scatter; tested in HEK293 cells; further: on the % scale 0 is the no-effect control and ±100 the full control effect; nearly all actives have a fitted effect of over 50% in size; luciferase read-out
# RE007 growth inh = less growth of the S. pombe RE007 Vpr strain; S. pombe RE007 Vpr strain, BacTiter-Glo ATP luminescence, 24 h; control for the full effect not named in the record; Potency, µM (highest dose often 92.2 µM), for inactives: at the top dose activity change, negative = less growth; 360,000 compounds, 0.21% hits; active = well fitted falling curve with a large enough effect; inconclusive = small, poorly fitted or top-dose-only effect; inactive = no such curve, though single readings can be large or run the other way;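 further: on the % scale 0 is the no-effect control and ±100 the full control effect; nearly all actives have a fitted effect of over 50% in size; the assay follows cell death caused by Vpr and the record does not say whether a fall means rescue or toxicity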
#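 Fission yeast strain RE007, carrying one chromosomally integrated HIV-1 vpr copy, was seeded at OD 0.01 in PMG+AL medium with 23 nL pinned compound. After 24 h at 30 °C and 99% humidity, viability was read by BacTiter-Glo luminescence.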
# Marburg entry inh = Marburg virus entry inhibition | Marburg virus pseudotyped entry inhibition, cell reporter; control for the full effect not named in the record; about a third of the inactives were read at about 46 µM | Potency, µM (top dose mostly 37.8 µM), for the others: at the highest dose activity change, negative = inhibition, actives largely listed as inhibitors | 300,000 compounds, 1.8% hits | AID 540276; active = well fitted inhibition curve with a large enough effect; inconclusive = small, poorly fitted or top-dose-only effect, or effect the other way; inactive = flat fitted curve, though single readings scatter; tested in HEK293 cells; about a fifth of its hits are not listed in these tables; further: on the % scale 0 is the no-effect control and ±100 the full control effect; luciferase read-out
# * marks the source's active call; other numbers are inactive results; ? = inconclusive; nt = not tested or not shown; [ ] = dose if it differs, or a comment. Unless noted, the call rests on the fitted dose curve; in most records, active means well fitted curve in the direction sought with a large enough effect; inconclusive means small, poorly fitted or top-dose-only effect, or another doubt; inactive means no such curve, though single readings can be large; an effect the other way counts as inactive or inconclusive. Potency means the concentration at half of the fitted maximal effect. Random draw from the library; about 4.7% have a hit in one of these screens.
SMILES,Cruzain Triton,SARS PLpro yeast,Cruzain inh noDet,2A StopGo,NS1 function inh,Lassa entry inh,RE007 growth inh,Marburg entry inh
COCCn1c(C)cc(C(=O)COC(=O)C23CC4CC(CC(O)(C4)C2)C3)c1C,-1.0%,5%,28%,-51%,0%,?,-2%,?
COC(=O)C1CCN(C(=O)COC(=O)CC(NC(N)=O)c2ccc(Cl)cc2)CC1 (configuration not stated),4.4%,3%,15%,3%,-2%,8%,11%,?
CCOc1cc(C(=O)OCC(=O)Nc2cccc(S(=O)(=O)NC3=NCCCCC3)c2)cc(OCC)c1OCC,nt,4%,nt,?,nt,-23%,5%,-21%
COc1ccc(CCNC(=O)/C(=C/c2cccnc2)NC(=O)c2ccccc2)cc1OC,nt,-4%,nt,-9%,nt,4%,7%,12%[46.1 µM]
CN(C)c1nc2c(c(=O)[nH]c(=O)n2C)n1CCCc1ccccc1,nt,-3%,nt,-26%,-12%,12%,5%,1%
CCC(=O)Oc1ccc(C(=O)Nc2cccc(C(=O)NC(C)(C)C)c2)cc1,nt,0%,nt,-6%,nt,-3%[46.1 µM],1%,22%[46.1 µM]
O=C(NCc1nnnn1-c1ccc(F)c(F)c1)c1ccc2c(c1)OCO2,nt,-1%,nt,1%,nt,18%,-10%,?
CNC(=O)NNC(=O)c1nc(-c2ccccc2)c(C)o1,nt,0%,nt,-9%,-1%,12%,6%,-3%[46.1 µM]
CS(=O)(=O)Nc1cccc(C2=NN(S(=O)(=O)c3ccccc3)C(c3ccco3)C2)c1 (configuration not stated),nt,2%,nt,4%,nt,-16%,2%,1%
N#Cc1c(N)nc2c3c(sc(=N)c2c1N)NC(=O)CC3c1c(F)cccc1Cl (configuration not stated),-3.5%,-11%,?,?,8%,-1%,6%,-7%
Cc1[nH]c2ccccc2c1/C=C/C(=O)c1ccncc1,nt,0%,nt,-11%,17%,-25%,12%,?
CC(=O)Nc1nonc1-c1nnc(SCC(=O)Nc2ccccc2)n1-c1ccccc1,-1.6%,nt,?,0%,nt,0%[46.1 µM],nt,-27%[46.1 µM]
CS(=O)(=O)c1ccc(S(=O)(=O)N2CCC(CO)(CCCc3ccccc3)CC2)cc1,nt,2%,nt,-12%,0%,nt,3%,nt
Cc1ccc(C(=O)NCC(=O)Nc2ccncc2)s1,nt,3%,nt,-11%,7%,nt,2%,nt
COc1ccc2nc(NC(=O)C3COc4ccccc4O3)sc2c1 (configuration not stated),-6.1%,-5%,8%,0%,2%,nt,-18%,nt
Cc1ccc(-c2nc(CS(=O)CC(=O)N3CCN(c4cccc(Cl)c4)CC3)c(C)o2)cc1 (configuration not stated),-4.8%,nt,?,-6%,nt,-2%[46.1 µM],nt,12%[46.1 µM]
Cc1cccc(-c2nnc(SCC(=O)Nc3ncccn3)n2C)c1,nt,0%,nt,-20%,nt,-12%[46.1 µM],9%,4%[46.1 µM]
O=C(NC1CC1)C1=C[C@H](c2ccc3c(c2)OCO3)C[C@H](OCc2ccc(CO)cc2)O1,nt,0%,nt,-13%,-5%,nt,-9%,nt
Cc1cc(SCC(=O)c2cccs2)nc2c(C)cccc12,-1.0%,-5%,-5%,73%[activator],10%,-1%,1%,12%
CCN(CC)S(=O)(=O)c1ccc(N/N=C/c2cc(OC)c(OC)cc2OC)nc1,-4.5%,-2%,-15%,-21%,0%,12%,-7%,-3%
COc1ccc(S(=O)(=O)Nc2cccc(SC)c2)cc1OC,-6.5%,-9%,-8%,21%,-4%,5%,-4%,-4%
CCN(CC)C(=O)C1CC(=O)N(c2ccc(F)c(Cl)c2)C1 (configuration not stated),1.8%,-2%,0%,10%,-2%,-14%,2%,-2%
COc1nc(OCC#N)nc(N(C)C)n1,1.3%,4%,-3%,-8%,-2%,11%,5%,5%
CC(C)(C)c1ccc(S(=O)(=O)Nc2noc3ccccc23)cc1,nt,-5%,nt,86%[activator],-63%,nt,-2%,nt
CCCC(=O)Nc1ccc(C(=O)COC(=O)c2c(C)noc2C)cc1,nt,-6%,nt,0%,nt,-14%,1%,17%[46.1 µM]
O=C(NCc1cc(C(F)(F)F)ccc1F)C1CCC(=O)N(C2CCCCCC2)C1 (configuration not stated),nt,-2%,nt,?,-10%,nt,-16%,nt
O=C(NCCCCc1ccccc1)c1ccccc1F,nt,-2%,nt,30%,-37%,nt,1%,nt
CCCCn1c(N)c(N(CC(C)C)C(=O)c2cc(S(=O)(=O)N3CCOCC3)ccc2Cl)c(=O)[nH]c1=O,nt,12%,nt,4%,nt,3%,6%,-22%
O=C(CSc1n[nH]c(=O)n1-c1ccccc1)Nc1ccccc1,nt,0%,nt,1%,0%,20%,7%,-7%[46.1 µM]
Cc1ccc(NS(=O)(=O)c2cn(C)c(=O)n(C)c2=O)cc1C,nt,-1%,nt,-10%,-7%,nt,-5%,nt
CCC(C)(C)NC(=O)c1cc([N+](=O)[O-])ccc1N1CCCCC1,-9.4%,-2%,-25%,-22%,3%,-1%,-10%,-27%
CCCCn1nc(C(=O)NCC(=O)Nc2c(C)cccc2C)c2ccccc2c1=O,nt,1%,nt,-17%,nt,-6%,-7%,-25%
Cc1ccc(Nc2c(O)nc[nH]c2=O)cc1,nt,nt,nt,3%,nt,14%[46.1 µM],10%,6%[46.1 µM]
CCOc1ccc(NC(=O)c2cc(C)nc3c2c(C)nn3-c2ccc(C)cc2)cc1,1.6%,nt,-6%,-5%,nt,?,nt,nt
Cc1cccc(C)c1NC(=S)N(CCN(C)C)C(C)c1cccnc1 (configuration not stated),nt,-1%,nt,-11%,nt,?,-14%,-17%[46.1 µM]
CN(CC(=O)Nc1cccnc1Cl)S(=O)(=O)c1ccc(Cl)cc1,nt,-8%,nt,-16%,1%,nt,3%,nt
O=C1CCCN1CCC(=O)N1CCCC(Nc2ccc(F)c(F)c2)C1 (configuration not stated),nt,-1%,nt,17%,1%,5%,2%,1%[46.1 µM]
Cc1ccc(C)c(CNC(=O)CCn2cccn2)c1,0.3%,nt,16%,3%,nt,12%[46.1 µM],nt,nt
CCOC(=O)C1=C(CS(=O)(=O)c2ccccc2)NC(=O)NC1c1ccc(O)c(OC)c1 (configuration not stated),nt,-3%,nt,-6%,-1%,9%,13%,2%[46.1 µM]
CCOC(=O)N1CCc2c(sc3c2C(=O)NC(c2ccc(C(=O)OC)cc2)N3)C1 (configuration not stated),-0.7%,nt,1%,-13%,nt,4%[46.1 µM],nt,28%[46.1 µM]
CC12CCC(C(=O)N(CC(=O)O)C1=O)C2(C)C (configuration not stated),nt,1%,nt,1%,0%,-11%,12%,11%[46.1 µM]
Cc1nc2cc(NC(=O)c3cccc(S(C)(=O)=O)c3)ccc2o1,nt,10%,nt,26%,-5%,?,-4%,24%[46.1 µM]
CS(=O)(=O)Nc1ccc(C(=O)NCCc2ccccc2)cc1,4.7%,2%,-16%,73%[activator],-6%,7%,3%,29%
O=C(/C=C/c1cccs1)NC(=S)Nc1ccc(C(=O)O)cc1,nt,1%,nt,4%,4%,nt,12%,nt
COc1ccccc1OCC(=O)NNC(=O)c1ccoc1C,-0.1%,-1%,1%,-2%,-9%,-3%,11%,1%
COc1ccccc1/C=C(/CC(=O)NCc1ccc(F)cc1)c1nc2ccccc2s1,-7.5%,10%,16µM*,-17%,19%,?,-4%,-13%
O=S(=O)(Nc1ccc2ccccc2n1)c1ccccc1Cl,nt,-2%,nt,85%[activator],-13%,nt,-7%,nt
C/C(=N\NC(=O)Cc1ccccc1)c1ccc(Cl)s1,nt,2%,nt,24%,9%,nt,-9%,nt
O=C(NCCS(=O)(=O)c1ccc(Br)cc1)c1ccc(Cl)cc1Cl,nt,9%,nt,-11%,0%,5%[46.1 µM],1%,5%[46.1 µM]
CCN(CC)c1ccc(CN2CCCCCC2)cc1,4.7%,6%,-12%,-2%,?,-13%,5%,?
Cc1ccc(S(=O)(=O)N(C(=O)c2ccncc2)c2ccc(OC(=O)c3ccncc3)c3ccccc23)cc1,-2.8%,-15%,?,-13%,-21%,?,-11%,?
CCOC(=O)c1c(-n2cnnn2)sc2c1CCCC2,nt,-3%,nt,-28%,-2%,nt,5%,nt
O=C(Nc1ccc2c(c1)OCO2)c1cnn2cccnc12,1.9%,-4%,0%,32%[activator],0%,-20%,0%,-18%
Cc1ccc(OCC(=O)N/N=C2/SCC(=O)N2Cc2ccco2)cc1,nt,-5%,nt,-8%,nt,0%[46.1 µM],3%,?
CC(NC(=O)C(=O)NN=C1CCCC1)c1ccccc1 (configuration not stated),nt,1%,nt,50%[activator],6%,nt,-7%,12%[46.1 µM]
Cc1ccc(C(=O)NN2C(=O)CSC2=S)cc1,2.0%,1%,-5%,-18%,20%,8%,-19%,3%
Nc1cc2sc(-c3ccc(C(=O)O)cc3)nc2cc1Cl,4.6%,-16%,8%,-60%,1%,13µM*,?,13µM*
Cc1ccc2cc(NC(=O)c3ccc(C(C)(C)C)cc3)ccc2n1,nt,-6%,nt,-5%,-6%,4%[46.1 µM],-8%,?
COCC(=O)Nc1ccccc1Br,1.3%,1%,-5%,-1%,8%,?,-3%,19%
CCc1ccc(NC(=O)C2CCCN2S(=O)(=O)c2ccc3c(c2)C(C)(C)C(=O)N3C)cc1 (configuration not stated),nt,-6%,nt,0%,5%,nt,-13%,nt

# The list continues.
SMILES,Cruzain Triton,SARS PLpro yeast,Cruzain inh noDet,2A StopGo,NS1 function inh,Lassa entry inh,RE007 growth inh,Marburg entry inh
Cn1nnc(NC(=O)c2ccc3ccccc3c2)n1,-0.2%,2%,-3%,35%[activator],-14%,10%,21%,?
O=C(NCC(c1ccco1)N1CCCC1)c1cccc(S(=O)(=O)Nc2ccc(Br)cc2)c1 (configuration not stated),nt,-5%,nt,13%,7%,0%,-15%,-24%
O=C(NCCCc1ccncc1)C1CCC(=O)N(Cc2ccc(Cl)cc2)C1 (configuration not stated),nt,0%,nt,-24%,5%,13%,-28%,12%
O=C(c1cccs1)N1CCN=C1SCc1cccc(F)c1,nt,-1%,nt,0%,-4%,nt,1%,nt
CCC(Sc1nnc(-c2ccc(F)cc2)c(-c2ccc(F)cc2)n1)C(=O)NC1CCCC1 (configuration not stated),0.1%,nt,-4%,22%,nt,-46%[46.1 µM],nt,nt
CC(C)(C)NC(=O)C1CCN(C(=O)c2ccc(-c3ccccc3)cc2)CC1,4.2%,3%,?,-29%,-49%,-6%,-5%,-13%
CCOc1ccccc1NC(=O)CN1C(=O)COc2ccc(Cl)cc21,2.8%,-3%,-2%,-16%,-10%,nt,-2%,nt
